NPYLR7 agonist = activates Aedes aegypti NPYLR7 receptor. HEK293T NPYLR7/Galpha15, GCaMP6s calcium fluorescence. activation, % at 10 µM. 270,000 tested, 0.15% active. AID 1259423; in the data active means activation above about 40%;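 further: 0% = vehicle and 100% = reference agonist at the receptor; some compounds past the cut are filed as inactive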
NPYLR7 agonist max-min = also measured in NPYLR7 agonist; calls as there; activation, %; measured here: Max-Min RFU normalised activation; some inactives read as strong as hits;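 span of the calcium signal over five minutes; 0% = vehicle and 100% = native peptide agonist; compound fluorescence can raise it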
* hit, by the source's call; & = joins results of further samples. Some of the compounds tested; rates above refer to the full screens.

Start of the data: the first three records, to show the layout:
SMILES | NPYLR7 agonist | NPYLR7 agonist max-min
c1cc(NC2CCCCCCC2)cc(-c2cnco2)c1 | 0.3&5.5 | -1.0&4.5
C=CCN(C)Cc1ccc(C(=O)Nc2c(C)cc(C)nc2C)cc1 | 6.3 | 4.6
Cc1nc2n(n1)C(=O)C(C(c1ccccc1F)N1CCN(c3ccccc3F)CC1)S2 (configuration not stated) | -5.4 | -8.6

Main list, from the first entry:
SMILES | NPYLR7 agonist | NPYLR7 agonist max-min
c1cc(NC2CCCCCCC2)cc(-c2cnco2)c1 | 0.3&5.5 | -1.0&4.5
C=CCN(C)Cc1ccc(C(=O)Nc2c(C)cc(C)nc2C)cc1 | 6.3 | 4.6
Cc1nc2n(n1)C(=O)C(C(c1ccccc1F)N1CCN(c3ccccc3F)CC1)S2 (configuration not stated) | -5.4 | -8.6
CNC(=O)CNC(=O)c1cc(-c2ccc(C)cc2C)nc2ccccc12 | 9.4 | 7.3
Cc1nc(C)c(Cc2ccc(F)cc2)c(N2CCN(C(=O)c3cccc(C(F)(F)F)c3)CC2)n1 | 5.9 | 8.0
CC(=O)NCC(=O)N1CCN(Cc2cccc(-c3noc(-c4cccnc4)n3)c2)CC1 | 20.0 | 11.7
Cn1c2[n+](c3ccccc3c1=O)Cc1ccccc1-2 | 9.8 | 8.3
O=C(NC1CC1)c1ccc(CN(CC(=O)N2CCCCCCC2)Cc2ccco2)cc1 | 4.1 | 1.8
c1ccc(-n2ncc3c(N4CCN(CCOc5cccc6ccccc56)CC4)ncnc32)cc1 | -6.2 | -6.9
S=c1oc(-c2ccco2)nn1CN1CCc2ccccc2C1 | -3.6 | -4.8
CC(=O)c1c(C)oc2ccc(N(C(=O)c3ccncc3)S(=O)(=O)c3ccc(C(C)(C)C)cc3)cc12 | -2.6 | 3.7
Cc1cc(C(F)(F)F)c(C#N)c(SCC(=O)c2ccccc2)n1 | -1.5 | -3.2
CCC1CN(C(=O)c2ccc(CNC(C)=O)o2)CC1N1CCOCC1 (configuration not stated) | 15.5 | 12.8
Cn1ccnc1SCCn1ccnc1-c1cccc2nonc12 | 6.0 | 1.2
CCCCc1ccc(C(=O)N(CCOC)CC(=O)N(CCc2c[nH]c3ccccc23)Cc2ccc(F)cc2)cc1 | 15.5 | 23.0
Cc1nnc(SCC(=O)N2CCCC(Nc3ccc4c(c3)OCO4)C2)s1 (configuration not stated) | 5.4 | 4.1
COc1nn(C)cc1C(=O)N1CCN(C(=O)c2ccco2)CC1 | 2.6 | 3.5
CCCCc1ccc(NC(=O)C(=O)NCCN2CCN(Cc3ccc([N+](=O)[O-])cc3)CC2)cc1 | 3.6 | 0.8
O=c1[nH]c2ccccc2c(=O)n1C1CC1c1ccccc1 (configuration not stated) | 3.4&5.4 | -0.1&3.0
O=C(c1csc(-c2cccnc2)n1)N1C[C@@H]2[C@@H]3CC[C@@H](C3)[C@@H]2C1 | 3.2 | 0.8
COc1ccc(S(=O)(=O)NCCc2csc3nc(-c4ccccc4F)nn23)cc1C | 23.1 | 11.2
COCCNC(=O)c1ccccc1N1CCC(NC(=O)NC(C)(C)C)CC1 | -0.5 | 4.6
Fc1ccccc1-c1nc(-c2ccccc2)no1 | 22.5 | 17.2
Cc1nn(C)c(C)c1C(=O)N1CCN(S(=O)(=O)c2c(Cl)cccc2Cl)CC1 | -3.2 | -2.6
N#Cc1ccsc1N1CCC(Sc2ncc[nH]2)C1=O (configuration not stated) | 0.1 | -2.3

Going on with the list.
SMILES | NPYLR7 agonist | NPYLR7 agonist max-min
Cc1nccn1-c1ccccc1CNC(=O)c1cccc2ccnn12 | 24.0 | 6.2
CC(C)(C)c1cc(C(=O)/C=C/c2ccc(C(=O)O)cc2)cc(C(C)(C)C)c1 | -12.8 | -16.6
CC(OC(=O)Cn1cc(I)c(=O)c(I)c1)C(N)=O (configuration not stated) | 0.8 | -0.3
COc1cccc(C=C2SC(=S)N(CCC(=O)Nc3nnc(C)s3)C2=O)c1 | -3.2 | -1.2
CC(C)(C)CC(C)(C)c1ccc(OCC(=O)N=Nc2c(O)n(Cc3ccc(Cl)cc3)c3ccccc23)cc1 | 4.5 | 6.2
CC(C)(C)c1cc(NC(=O)C2CCCO2)n(Cc2ccccc2)n1 (configuration not stated) | 2.1 | 0.6
COCCN(Cc1ccc(C)cc1)Cc1cccc(F)c1O | 2.4 | 0.8
Cc1cn2c3c(=O)n(C)c(=O)n(C)c3nc2n1-c1ccccc1F | 1.9 | 2.0
Cc1ccc(-c2csc3nc(CN(CC(O)COc4ccc(Cl)cc4)C(C)C)[nH]c(=O)c23)cc1C (configuration not stated) | -7.3 | -3.5
CC1(C(=O)O)CC=CCC1C(=O)O (configuration not stated) | 0.7 | -0.1
C=c1ccccc1=c1[nH]/c(=C/c2cccc(C(F)(F)F)c2)c(=O)o1 | -2.3 | -5.0
Cc1cccc(Nc2cc(C)nc3c(-c4ccccc4)c(C)nn23)c1 | 1.8 | 0.0
O=C(Cn1nc2c(c1NC(=O)c1ccco1)CSC2)NCCc1ccccc1 | 3.3 | 13.0
COc1cccc(-n2c(-c3ccc(Cl)cc3)cc(C(=O)N3CCCC3)c2C)c1 | 12.1 | 15.8
CC(NC(=O)Cn1ccnc1)c1ccccc1Cl (configuration not stated) | 3.0 | 1.0
O=C(N/N=C\c1ccncc1)c1ccc(COc2ccccc2Br)cc1 | -2.1 | -5.2
O=S(=O)(NCc1ccco1)c1ccc(C2CCCCC2)cc1 | 7.8 | 12.4
COc1ccc(-c2nc(Cn3nnc(C(=O)Nc4cccc(C)c4C)c3C)c(C)o2)c(OC)c1 | 7.3 | 1.6
CC(=O)c1ccc(NC(=O)N[C@H]2C[C@@](O)(C(=O)N[C@H](Cc3ccccc3)C(N)=O)C[C@@H](O)[C@@H]2O)cc1 | -9.5 | -14.5
COc1ccc(CCOC(=O)[C@@H]2CCCN2C(=O)c2cc(C(F)(F)F)cc(C(F)(F)F)c2)cc1OC | 8.1 | 10.0
CC(C)N(Cc1cnn(C)c1)Cc1cnc(S(C)(=O)=O)n1CC1CCCO1 (configuration not stated) | 3.4 | 1.4
C/C(=N/NC(=O)c1nc2nc(C)cc(C)n2n1)c1ccc(F)cc1 | 7.3 | 4.5
CC(C)c1ccc(C=C(C#N)S(C)(=O)=O)cc1 | 8.1 | 2.9
COc1ccc(CCN(C)Cc2nc(-c3cccc(Cl)c3)no2)cc1OC | 8.6 | -4.7
CC(C)c1nc(C(=O)N2CCCC(Nc3ccc4c(c3)OCCO4)C2)cs1 (configuration not stated) | -0.1 | -5.7

One compound at a time, from the list above. Values in the order: NPYLR7 agonist | NPYLR7 agonist max-min
COCCN(Cc1ccc(C)cc1)Cc1cccc(F)c1O in the list: 2.4 | 0.8
CC1(C(=O)O)CC=CCC1C(=O)O (configuration not stated) in the list: 0.7 | -0.1

Next structures
SMILES | NPYLR7 agonist | NPYLR7 agonist max-min
CCCc1ccc(C(NC(=O)C2(C(=O)NC3CC3)CC2)C(C)C)cc1 (configuration not stated) | 3.5 | 0.2
CCc1nc2ccc(C(=O)NC3CCN(C)CC3)cn2c1N(C)Cc1nccn1C | -5.0 | -9.1
CCOc1ccc(N2CCn3c2nnc(C(=O)NCCCN(CC)CC)c3=O)cc1 | 5.7 | 1.9
CCC(OC)C(=O)Nc1cc(F)ccc1N1CCN(C)CC1 (configuration not stated) | 0.6&-4.8 | 0.3&-1.4
COCCn1c(=O)c2c(nc3n(-c4ccc(Oc5ccccc5)cc4)c(C)c(C)n23)n(C)c1=O | 7.8 | 6.2
Cc1cc(C(F)(F)F)nn1CC(=O)N1CCCCC1 | -0.8 | 1.5
Cc1nc(COc2ccc(C(=O)NCc3ccc(F)cc3)cc2)cs1 | 2.0 | -0.6
CCn1c(SCC(C)C#N)nnc1-c1ccco1 (configuration not stated) | -2.1 | -1.2
CCc1cn[nH]c1C1CCN(C(=O)c2cnc3cc(=O)[nH]n3c2C)CC1 | 12.3 | 1.5
Cc1noc(C)c1C(=O)N(C)Cc1ccncc1 | -1.1 | -4.2
COCCCN(CC(=O)N1CCc2sccc2C1c1ccccc1)C(=O)c1ccc(Cl)cc1 (configuration not stated) | -9.3 | -5.7
CN1CCc2ccccc2Cc2[nH]c3ccccc3c2CC1 | 2.9 | -32.4
CC(C)c1noc(C(C)Sc2ncc(-c3ccc(F)cc3)[nH]2)n1 (configuration not stated) | 1.2 | 7.8
CC1CCCc2c1nc1ccccc1c2C(=O)N1CCC[C@H]1CO (some centres not stated) | 1.0 | 3.4
O=C(CSc1ccc(S(=O)(=O)N2CCOCC2)cn1)N1CCCC1 | -7.5 | -11.2
O=C1C=CC(=NS(=O)(=O)c2ccc3ccccc3c2)C=C1Br | -4.1 | -3.2
COc1ccc(CNC(=O)C(CC(=O)N2CCOCC2)n2ccnc2)cc1 (configuration not stated) | 4.5 | 1.1
Cc1ccc(NC(=O)c2cc3n(n2)CCN(Cc2cccc(F)c2)C3=O)cc1 | -0.6 | -0.5
CC(C)c1ccc(CC(=O)N2CCC2(C)C(=O)NS(=O)(=O)c2cccc(C#N)c2)cc1 (configuration not stated) | -2.7 | -9.5
COc1cc(Nc2nc3ccc(Cl)cc3n3cnnc23)cc(OC)c1 | 14.0 | 7.5
COc1ccccc1-n1cc(C(=O)N[C@@H](C)c2ncccc2C)cn1 | -5.8 | -6.3
CCn1cc(NC(=O)N(C)C)c2ccccc21 | 0.2 | -5.5
O=C(C1CC1)N(Cc1nccn1Cc1ccc(Cl)c(Cl)c1)CC1CCCO1 (configuration not stated) | 7.2 | 11.0
Cn1c(=O)c2c(SCC(=O)N3CCOCC3)nc(-c3ccccc3Cl)nc2n(C)c1=O | -4.8 | -8.5
CCCCCCn1c(SCC(C)O)nc2c1c(=O)[nH]c(=O)n2C (configuration not stated) | 2.6 | -2.2

A second format for part of the listing above.
Below each compound: NPYLR7 agonist, NPYLR7 agonist max-min
CC(NC(=O)Cn1ccnc1)c1ccccc1Cl (configuration not stated)
→ 3.0, 1.0
O=C(N/N=C\c1ccncc1)c1ccc(COc2ccccc2Br)cc1
→ -2.1, -5.2
O=S(=O)(NCc1ccco1)c1ccc(C2CCCCC2)cc1
→ 7.8, 12.4
COc1ccc(-c2nc(Cn3nnc(C(=O)Nc4cccc(C)c4C)c3C)c(C)o2)c(OC)c1
→ 7.3, 1.6
CC(=O)c1ccc(NC(=O)N[C@H]2C[C@@](O)(C(=O)N[C@H](Cc3ccccc3)C(N)=O)C[C@@H](O)[C@@H]2O)cc1
→ -9.5, -14.5

Next compounds:
SMILES | NPYLR7 agonist | NPYLR7 agonist max-min
CN(Cc1nccs1)[C@H]1[C@H](O)C[C@@H]2C[C@H](c3ccccc3)OC[C@]21O | 1.2 | 12.7
CCOC(=O)c1ccc(N=CC(C#N)c2nc(-c3ccccc3)cs2)cc1 (configuration not stated) | 4.6 | 10.8
Cc1ccc(Cc2nc(N3CCCN(C(=O)Nc4ccc(F)cc4F)CC3)c3c(-c4cccnc4)noc3n2)cc1 | -5.6 | -7.6
Cc1[nH]n(-c2ccc(Cl)c(Cl)c2)c(=O)c1C1=C([n+]2ccccc2)C(=O)N(C2CCCCC2)C1=O | -4.1 | 2.3
COc1cc(-c2nc3cc(C)ccn3c2NCc2ccccc2)ccc1OC(=O)C1CC1 | 5.9 | -3.4
O=C1C(=O)N(CN2CCCC2c2nc3ccccc3s2)c2ccccc21 (configuration not stated) | -0.5 | 3.7
O=c1[nH]c2ccc(S(=O)(=O)Nc3ccc4c(c3)OCO4)cc2[nH]c1=O | 0.8 | -1.2
CC(=O)N1CC2(C(C)C)CN(C(C)=O)CC(C(C)C)(C1)C2=O | 1.0 | -1.0
Cc1ccc(C(=O)NCCn2nc(-c3ccc(Cl)cc3)ccc2=O)cc1C | -1.8 | -2.0
O=C(NN=Cc1ccc([N+](=O)[O-])cc1)c1cc(-c2cc(Cl)ccc2Cl)n[nH]1 | 7.2 | 10.7
CCOc1ccccc1C(=O)N1C[C@@H](N)C[C@H]1C(=O)NC | 0.2 | 6.7
COc1cccc(N2CCN(C(=O)c3ccc(Cl)cc3)C(C)C2=O)c1 (configuration not stated) | -1.5 | 3.4
Cc1cccc(NC(=O)C2CCN(c3c(F)cc(C#N)cc3F)CC2)n1 | 1.3 | 1.1
CCOc1ccccc1C1C(C(=O)OCCOC)=C(C)NC2=C1C(=O)CC(c1ccc(Cl)cc1)C2 (configuration not stated) | -11.6 | -14.5
COc1ccc(CCn2c(-c3cccc(C#N)c3)nc3ccc(Br)cc3c2=O)cc1 | 6.1 | 6.1
c1ccc(-c2noc(N3CCOCC3)c2CNCc2ccc3c(c2)OCO3)cc1 | 12.4 | 11.1
CCc1ccc(S(=O)(=O)N2CCC3(CCCN(C)C3=O)C2)cc1 (configuration not stated) | -6.7 | -6.8

2 records picked at random from those above, as already listed:
SMILES | NPYLR7 agonist | NPYLR7 agonist max-min
c1cc(NC2CCCCCCC2)cc(-c2cnco2)c1 | 0.3&5.5 | -1.0&4.5
COCCCN(CC(=O)N1CCc2sccc2C1c1ccccc1)C(=O)c1ccc(Cl)cc1 (configuration not stated) | -9.3 | -5.7

Assay outcomes (PubChem)
